Screening data as filed in PubChem.
TRPML1 agonist: agonists of human TRPML1 channel. Q9GZU1. 0.12% of 410,000 active. TRPML1-expressing cells, Ca2+ dye fluorescence, FDSS; host cell line not named in the record; reference of the full effect not given here. activation, % (concentration not given with the values). AID 624414; in the data active = activation above about 50%; inconclusive = about 30% to 50%; inactive = below about 30%; further: 0% is about no effect; the text of the record puts the active cut at 80%
Target sequence (Q9GZU1 whole entry, looked up): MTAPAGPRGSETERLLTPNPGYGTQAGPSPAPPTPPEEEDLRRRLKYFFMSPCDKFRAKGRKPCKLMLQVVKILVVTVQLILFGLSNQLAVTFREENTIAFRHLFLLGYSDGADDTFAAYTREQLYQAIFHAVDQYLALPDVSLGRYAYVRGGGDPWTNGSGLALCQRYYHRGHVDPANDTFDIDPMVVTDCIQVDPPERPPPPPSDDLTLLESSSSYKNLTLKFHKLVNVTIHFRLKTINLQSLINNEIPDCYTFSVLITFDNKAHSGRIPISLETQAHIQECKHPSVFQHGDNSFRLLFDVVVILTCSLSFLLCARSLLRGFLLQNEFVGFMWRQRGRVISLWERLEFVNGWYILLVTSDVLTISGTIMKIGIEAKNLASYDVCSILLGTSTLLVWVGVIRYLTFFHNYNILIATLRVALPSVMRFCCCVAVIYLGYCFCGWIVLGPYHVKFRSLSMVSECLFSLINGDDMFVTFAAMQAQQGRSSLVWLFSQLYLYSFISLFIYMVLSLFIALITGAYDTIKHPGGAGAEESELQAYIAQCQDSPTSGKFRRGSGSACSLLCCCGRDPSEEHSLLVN
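Calcium fluorescence on an FDSS kinetic reader gave the read-out. Tet-induced TRPML1-DL cells were plated overnight, dye-loaded (Ca8 with quencher, 45-90 min, room temperature, dark), then read 110 s after compound addition, and again 110 s after 4uM final 54-4 (EC80).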
Six1-Eya2 blk: Six1/Eya2 interaction inhibition. Q15475+O00167. AlphaScreen GST-Six1/His-Eya2 binding, biochemical; stronger effect = lower value; control for the full effect not named in the record. activity change, % (no concentration beside the values). 0.56% of 360,000 active; in the data active = activity change below about -65%; inconclusive = about -30% to -65%; inactive = above about -30%; further: on the % scale 0 is the no-effect control and ±100 the full control effect; compound concentration not given in the record
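AlphaScreen luminescence read after one hour at 37 °C in darkness. Pin-transferred compounds met GST-Six1 and His-Eya2 protein (5X stock 250 nM/500 nM) plus glutathione donor and Ni-chelate acceptor beads (5X, 50 ug/mL).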
D2 ag: activates the human D2 dopamine receptor | activation, % (no concentration beside the values) | AID 624465 | 0.084% of 360,000 active | DiscoveRx PathHunter D2 beta-arrestin, luminescence, 90 min; 100% = 57 uM dopamine signal | P14416; in the data active = activation above about 40%; inconclusive = about 15% to 40%; inactive = below about 15%; further: compound concentration not given in the record; the text of the record calls up to 30% inactive
Target sequence (P14416 whole entry, looked up): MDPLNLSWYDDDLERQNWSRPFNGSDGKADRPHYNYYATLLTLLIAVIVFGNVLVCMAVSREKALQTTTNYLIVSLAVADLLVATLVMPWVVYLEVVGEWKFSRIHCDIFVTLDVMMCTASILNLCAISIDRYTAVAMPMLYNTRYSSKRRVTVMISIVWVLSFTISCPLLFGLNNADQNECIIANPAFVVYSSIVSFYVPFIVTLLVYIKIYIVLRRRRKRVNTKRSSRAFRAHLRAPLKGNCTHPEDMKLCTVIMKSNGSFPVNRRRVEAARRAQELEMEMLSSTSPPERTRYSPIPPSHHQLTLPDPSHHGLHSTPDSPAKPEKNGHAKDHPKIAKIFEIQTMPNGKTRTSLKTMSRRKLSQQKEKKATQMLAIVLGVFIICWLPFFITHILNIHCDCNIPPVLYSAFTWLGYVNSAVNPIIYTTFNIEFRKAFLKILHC
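Agonist mode: compounds alone added to overnight-plated D2 PathHunter cells for 90 min at 37 C, with 57 uM final dopamine (EC100) defining full response. Beta-arrestin recruitment detected by chemiluminescent reagent, read after 1 h at ambient temperature.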
TRPML1 blocker: blocks the human TRPML1 channel; AID 624415; TRPML1-inducible cells, Ca2+ dye fluorescence, FDSS; stronger effect = lower value; inhibition of EC80 agonist-evoked calcium signal; 0.02% of 390,000 active; activity change, negative = inhibition, % (concentration not given with the values); Q9GZU1; in the data active means activity change below about -50%; inconclusive means about -30% to -50%; inactive means above about -30%;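 further: stimulus is agonist 54-4 at its EC80 concentration; on the % scale 0 is the no-effect control and ±100 the full control effect; compound concentration not given in the record; the text of the record puts the active cut at -80%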
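Tet-induced TRPML1-DL cells loaded with Ca8 no-wash calcium dye were read kinetically on FDSS. Compound addition was followed by EC80 agonist 54-4 (4 uM final); inhibition was read over 110 s.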
PINK1 modulator: changes PINK1 expression. AID 624263. 0.2% of 410,000 active. Potency, µM (doses to about 76.6 µM), for the others: at the top dose activation (PINK1 increase), usual class: activators. PINK1 immunofluorescence, high-content cytometry, 24 h; active = well fitted activation curve with a large enough effect; inconclusive = small, poorly fitted or top-dose-only effect; inactive = flat fitted curve, though single readings scatter; cell line not stated here;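 further: potency means the concentration at half of the fitted maximal effect; % of control where 0% means no effect; nearly all actives have a fitted effect of over 65% in size; a mitochondrial uncoupler was the plate control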
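PINK1 protein level read as immunofluorescence by microplate cytometer in a fixed, stained stable cell line after 24 h exposure to five compound concentrations, with CCCP as control.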
D2 PAM: potentiates the human D2 dopamine receptor allosterically. P14416. DiscoveRx D2 beta-arrestin cells, luminescence, 90 min; 100% = 57 uM dopamine signal. potentiation, % (test concentration not listed). 0.23% of 360,000 active; active = potentiation of 50% or more; inconclusive = 30% to 50%; inactive = 30% or less;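 further: compound concentration not given in the record; tested on top of an EC20 dose of dopamine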
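PathHunter beta-arrestin assay in DiscoveRx D2 cells. Compounds were added with an EC20 of dopamine (50 nM final) for 90 min at 37 deg C. Luminescence was read 1 h after detection reagent, with 57 uM dopamine as the EC100 control.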
Numbers without * were called inactive; ? = inconclusive; nt = no result given; & = joins results of further samples; [ ] = another dose, or the depositor's remark.

Second line of a record – Six1-Eya2 blk	D2 ag	PINK1 modulator	D2 PAM	TRPML1 agonist	TRPML1 blocker
O=C(CN1CCOCC1)NNC(=O)c1ccc([N+](=O)[O-])cc1
  4	2.1	0.5%	-1	0.6	-3
C(C#CCN1CCOCC1)#CCN1CCOCC1
  -10	4.3	-3.4%	-3	-0.6	-11
O=C(CCS(=O)(=O)c1ccc(Cl)cc1)N1CCN(S(=O)(=O)c2cccs2)CC1
  0	-1.0	-1.0%	1	-0.6	2
Cc1cccc(Nc2c3c(nc4nncn24)CCC3)c1C
  nt	nt	-0.8%	nt	-0.7	-11
Cc1ccc(Cl)cc1N1CCN(C(=O)c2ccc(CS(=O)(=O)c3ccccc3C)o2)CC1
  nt	nt	2.7%	nt	3.0	19
CCOC(=O)C1CCCN(C(=O)c2cc(Nc3ccc(OC)cc3)nc3ccccc23)C1 (stereo unspecified)
  -6	-7.7	-2.3%	10	-0.2	-10
C=CCOc1c(Br)cc(/C=N/n2c(CC)n[nH]c2=S)cc1Br
  -10	2.7	9.2%	-3	0.5	20
COc1ccc(C(C)=O)cc1COC(=O)[C@H](Cc1ccccc1)NC(=O)c1ccco1
  -1	-0.6	-0.6%	4	0.6	-3
O=C(Nc1nc(-c2ccccn2)cs1)c1cc(S(=O)(=O)N2CCOCC2)ccc1F
  -90*	-4.2	3.0%	-1	3.4	-2
C=CCOc1ccc(/C=C\c2nc(O)c([N+](=O)[O-])c(=O)[nH]2)cc1OCC
  -20	0.8	1.7%	-19	0.6	0
COc1ccc(NC(=O)CCc2nnc3ccc(N4CCC(C)CC4)nn23)cc1
  3	-0.8	2.6%	-4	1.4	10
C#CCOCCOCCOCCNc1nc(N2CCN(C(=O)[C@H](C)n3cc(CCC(=O)O)nn3)CC2)nc(N2CCN(C(=O)[C@H](CCCCN)n3cc(CCCC)nn3)CC2)n1
  12	-5.3	2.6%	-10	-0.4	2
CCOC(=O)C1CCCN(C(=O)c2ccc3c(c2)C(C)(C)CCC3(C)C)CC1 (stereo unspecified)
  0	5.6	17%	0	-1.0	nt
O=C(NCCCc1ccncc1)C1CCC(=O)N(Cc2cccc(F)c2)C1 (stereo unspecified)
  1	-2.7	1.2%	-9	0.3	23
COC(=O)c1ccccc1NC(=O)c1ccc(COc2ccc3c(c2)CCC3)cc1
  3	-2.0	2.5%	4	-0.1	-2
O=C(O)C1(C(=O)O)CCC2(CCCCC2)CC1
  -2	-4.1	2.0%	0	-0.5	-4
CC(=O)c1cccc(NC(=O)COc2cc(C)on2)c1
  0	4.6	-0.9%	0	1.6	33
C=C(C)Cn1c(SCC(=O)N/N=C/c2cccc(O)c2)nc2ccccc2c1=O
  0	3.2	16%	-2	2.1	0
CC(=O)c1ccc(OC(C)C(=O)Nc2cccc(S(=O)(=O)NCc3ccco3)c2)cc1 (stereo unspecified)
  -2	9.7	0.9%	-5	-0.4	-10
NC(=O)CSc1cn(Cc2ccc(F)cc2)c2ccccc12
  -5	-0.1	2.7%	-2	1.0	30

Entries of single compounds, looked up by structure.
C=CCOc1c(Br)cc(/C=N/n2c(CC)n[nH]c2=S)cc1Br in the list: Six1-Eya2 blk: -10; D2 ag: 2.7; PINK1 modulator: 9.2%; D2 PAM: -3; TRPML1 agonist: 0.5; TRPML1 blocker: 20
O=C(CN1CCOCC1)NNC(=O)c1ccc([N+](=O)[O-])cc1 in the list: Six1-Eya2 blk: 4; D2 ag: 2.1; PINK1 modulator: 0.5%; D2 PAM: -1; TRPML1 agonist: 0.6; TRPML1 blocker: -3
COc1ccc(C(C)=O)cc1COC(=O)[C@H](Cc1ccccc1)NC(=O)c1ccco1 in the list: Six1-Eya2 blk: -1; D2 ag: -0.6; PINK1 modulator: -0.6%; D2 PAM: 4; TRPML1 agonist: 0.6; TRPML1 blocker: -3

Following part.
Second line of a record – Six1-Eya2 blk	D2 ag	PINK1 modulator	D2 PAM	TRPML1 agonist	TRPML1 blocker
CN(C)c1ccc(C(=O)N2CCC2(C)C(=O)O)cc1 (stereo unspecified)
  3	-1.5	1.0%	-2	0.5	nt
C=CCc1cccc(/C=N/NC(=O)c2ccccc2OC)c1O
  -1	-4.8	-1.7%	-4	6.2	6
CS(=O)(=O)N(CC(=O)NC1CC2CCC1C2)c1ccc(Oc2ccccc2)cc1 (stereo unspecified)
  -2	1.1	-1.5%	-8	4.3	26
CCOc1ccccc1NC(=O)CSc1nnc2[nH]c(=O)cc(C)n12
  nt	nt	9.3%	nt	0.9	29
Cc1cnc(C)c(N2CCN(C(=O)C3CCC(=O)N(CCc4cccc(F)c4)C3)CC2)n1 (stereo unspecified)
  -2	0.3	1.7%	-3	-0.1	6
Cc1cc(C(=O)N/N=C/c2cccc(OC(=O)c3cccc(Br)c3)c2)n[nH]1
  -13	3.3	3.8%	-44	-0.1	3
CCC(C)Sc1cccc(-c2nc3cc(C)ccn3c2NC2CCCCC2)c1 (stereo unspecified)
  -22&-14	1.0	14µM*	-12	-0.7&-0.4	-14
N#CCC(=O)Nc1ccc(C(=O)OCC(=O)Nc2ccc3ccccc3c2)cc1
  -13	3.2	1.6%	17	-0.2	20
O=[N+]([O-])c1cc(C(F)(F)F)ccc1N1CCN(S(=O)(=O)c2ccc3ccccc3c2)CC1
  -20	-1.0	-1.7%	-19	1.3	22
COc1ccc(CCN2C(=O)N(c3ccc(F)cc3)C(=O)C2CC(=O)Nc2ccccc2)cc1 (stereo unspecified)
  nt	nt	2.5%	nt	-0.1	7
O=C(O)CCC(=O)c1ccc2c(c1)CCCC2
  -9	-7.1	-1.4%	-19	-1.3	-8
CCc1ccc(OCCSc2nc(-c3cccc(C)c3)nc3cc(=O)[nH]n23)cc1
  nt	nt	2.6%	nt	-0.4	14
O=C(NCCC1=CCCCC1)c1cccc(S(=O)(=O)N2CCCCC2)c1
  -7	-0.4	0.6%	-10	-0.2	11
Cc1ccc(CN2C(=O)CSC2c2cccnc2)cc1 (stereo unspecified)
  -7	-1.1	0.4%	0	0.1	13
FC(F)(F)c1ccc(C2NCCc3sccc32)cc1 (stereo unspecified)
  16	2.1	5.4%	-7	-0.5	-2
CCSc1nc2c(sc3ccccc32)c(=O)n1C(C)C
  9	-0.9	-0.6%	-9	0.6	-2
NS(=O)(=O)c1ccc(N2CCOCC2)c(C(=O)NCc2ccc3c(c2)OCO3)c1
  -4	1.4	3.7%	-9	-0.7	-1
Cc1cc(C2C(=O)NC(=O)C2=O)c(C)cc1Br (stereo unspecified)
  4	-5.8	0.7%	-12	-0.4	3
CC(C(=O)N1CCCc2ccccc21)N1CCN(S(=O)(=O)c2ccccc2F)CC1 (stereo unspecified)
  -8	-0.7	-0.2%	13	-0.7	18
O=C(NCc1cc(F)cc(C(F)(F)F)c1)C1CCC(=O)N(C2CCCC2)C1 (stereo unspecified)
  2	0.9	2.3%	3	-0.5	-11

Rewritten bar-delimited: 2 of the compounds above
Compound | Six1-Eya2 blk | D2 ag | PINK1 modulator | D2 PAM | TRPML1 agonist | TRPML1 blocker
O=C(NCc1cc(F)cc(C(F)(F)F)c1)C1CCC(=O)N(C2CCCC2)C1 (stereo unspecified) | 2 | 0.9 | 2.3% | 3 | -0.5 | -11
CCSc1nc2c(sc3ccccc32)c(=O)n1C(C)C | 9 | -0.9 | -0.6% | -9 | 0.6 | -2

Further records follow.
Second line of a record – Six1-Eya2 blk	D2 ag	PINK1 modulator	D2 PAM	TRPML1 agonist	TRPML1 blocker
Cc1ccc(CNS(=O)(=O)c2ccc(-c3cc(C(F)(F)F)on3)s2)cc1
  nt	nt	0.6%	nt	-0.2	24
N#Cc1c(SCC(=O)Nc2nncs2)sc2c(O)cc(=O)[nH]c12
  ?	-5.6	2.1%	0	0.1	-6
CCC(CC)NC(=O)c1ccc2nc[nH]c2c1
  1	-0.5	-0.8%	-17	0.0	9
O=C(Nc1ccccc1-c1nnc(SCc2ccc(Cl)cc2)o1)c1ccccc1
  3	-2.8	0.0%	-7	0.0	8
Nc1nc2c(ncn2[C@@H]2O[C@H](CNS(=O)(=O)N3CCCC3)[C@@H](O)[C@H]2O)c(=O)[nH]1
  24	8.6	6.8%	3	-0.2	-15
C=CCOC(=O)C1=C(C)NC(=O)NC1/C=C/c1ccccc1OC (stereo unspecified)
  -1	-3.1	0.5%	-10	0.6	-1
C=CCn1c(-c2cc3c(s2)CCC(CC)C3)n[nH]c1=S (stereo unspecified)
  -4	2.9	1.2%	-11	3.3	20
CC(C)NC(=O)NC(=O)CSc1nnc(-c2c[nH]c3ccccc23)o1
  -15	-2.5	-0.5%	-37	2.4	32
CN(Cc1ccccc1)C(=O)COC(=O)C1CCN(S(=O)(=O)c2ccc3c(c2)OCCO3)CC1
  4	0.1	1.5%	-27	0.5	-3
Cc1ccccc1N1CCN(C(=O)CCN2C(=O)c3ccccc3C2=O)CC1
  3	-0.6	-2.6%[38.3 µM]	-13	0.0	-5
CCCCn1c(N)c(N(CCC(C)C)C(=O)c2ccc(C)o2)c(=O)[nH]c1=O
  0	-3.3	0.3%	-1	-0.7	-8
COc1ccc(NC(=O)C2CCN(c3nc4ccccc4[nH]3)CC2)cc1OC
  nt	nt	-1.2%	nt	0.9	-11
CC(=O)Cn1nnc2sc(-c3ccccc3)cc2c1=O
  -8	0.4	-1.5%&-1.3%	-23	-0.2&1.0	-13&11
CS(=O)(=O)N1CCN(C(=O)CCC2CCCC2)CC1
  7	-3.6	-0.6%	-11	-0.2	-2
O=C(O)c1cccc(CSc2n[nH]c(-c3ccc(Cl)cc3Cl)n2)c1
  -1	-4.1	-0.4%	-6	-0.2	-10
COc1cccc(-n2nc(C(=O)Nc3ccc4c(c3)OCO4)c3ccccc3c2=O)c1
  -22	5.1	1.3%	-5	-0.7	3
S=c1[nH]nc(CSc2nc3ccccc3s2)n1C1CCCCC1
  -5	4.0	-2.4%	-10	0.6	6
COc1cc2nc(N(C)C)nc(N)c2cc1OC
  -29	3.0	7.5%	-35	0.0	23
CCCSc1ncc(Cl)c(C(=O)Nc2c(C(=O)Nc3ccccc3)oc3ccccc23)n1
  nt	nt	-0.3%	nt	0.2	17
CC1=NN(/C(=N\c2nnc(C)s2)Nc2ccc(C(C)(C)C)cc2)[C@H](c2ccc(C)cc2)S1
  -17	-5.2	?	-9	-0.1	13
COc1ccc(OC)c(NC(=O)CCCc2ccccc2)c1
  -1	1.6	0.2%	-1	nt	nt
O=C1c2oc3ccccc3c(=O)c2C(c2cccc(O)c2)N1c1ccccn1 (stereo unspecified)
  3	-0.9	-0.7%	-2	0.2	-7
O=C(NC(=S)Nc1ccc(Br)cc1)C1CCC1
  -6	-0.6	-1.1%	-19	2.3	-4
O=C(Nc1ccc(OC(F)(F)C(F)F)c(NC(=O)c2ccc(F)cc2)c1)c1ccc(F)cc1
  5	-1.9	11%	-31	4.5	-10
